Screening data deposited in PubChem BioAssay by National Center for Advancing Translational Sciences (NCATS).
TRPML1 agonist = activates the human TRPML1 channel; Q9GZU1; TRPML1-expressing cells, Ca2+ dye fluorescence, FDSS; host cell line not named in the record; reference of the full effect not given here; activation, % (concentration not given with the values); 410,000 tested, 0.12% active; AID 624414; in the data active = activation above about 50%; inconclusive = about 30% to 50%; inactive = below about 30%; also: 0% is about no effect; the text of the record puts the active cut at 80%
Target sequence (Q9GZU1 whole entry, looked up): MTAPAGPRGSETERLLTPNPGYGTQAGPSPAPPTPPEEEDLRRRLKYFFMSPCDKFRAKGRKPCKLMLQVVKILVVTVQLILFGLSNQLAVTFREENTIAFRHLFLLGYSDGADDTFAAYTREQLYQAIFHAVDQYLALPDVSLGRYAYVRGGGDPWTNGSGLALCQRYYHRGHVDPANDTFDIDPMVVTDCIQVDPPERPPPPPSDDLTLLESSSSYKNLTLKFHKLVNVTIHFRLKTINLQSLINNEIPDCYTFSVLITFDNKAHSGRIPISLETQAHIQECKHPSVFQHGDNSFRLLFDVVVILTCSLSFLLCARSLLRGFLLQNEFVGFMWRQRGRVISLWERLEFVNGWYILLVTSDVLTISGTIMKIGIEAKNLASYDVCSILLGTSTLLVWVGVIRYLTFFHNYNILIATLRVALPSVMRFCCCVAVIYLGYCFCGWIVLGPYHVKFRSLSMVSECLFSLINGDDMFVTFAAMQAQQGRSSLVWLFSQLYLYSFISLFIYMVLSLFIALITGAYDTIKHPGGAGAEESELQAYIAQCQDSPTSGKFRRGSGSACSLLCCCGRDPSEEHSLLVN
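In this qHTS format, compounds were pin-transferred onto Ca8-dye-loaded TRPML1-DL cells induced with Tet overnight, and intracellular Ca2+ fluorescence was recorded kinetically for 110 s after a 10 s baseline. A subsequent 4uM final 54-4 (EC80) addition followed by a second 110 s read served as the antagonist phase.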
TRPV1 potentiator = potentiators of human vanilloid receptor 1 (TRPV1); potentiation, % at 8.33 µM; Q8NER1; TRPV1-expressing cells, Fluo-8 calcium influx, capsaicin EC20 potentiation; host cell line not named in the record; control for the full effect not named in the record; 320,000 tested, 0.02% active; active means potentiation above 80%; inconclusive means 30% to 80%; inactive means below 30%; also: 0% is about no effect
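Fluo-8 calcium influx in TRPV1-expressing cells, kinetic read (ex 480/em 520 nm). Compound added and read 3 min for agonist activity, followed by capsaicin at EC20 final and 2 min further read for enhancement.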
D2 potentiator = human D2 receptor positive allosteric modulation; DiscoveRx D2 beta-arrestin cells, luminescence, 90 min; 100% = 57 uM dopamine signal; potentiation, % (no concentration beside the values); 360,000 tested, 0.23% active; AID 624464; active = potentiation of 50% or more; inconclusive = 30% to 50%; inactive = 30% or less;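 also: compound concentration not given in the record; tested on top of an EC20 dose of dopamine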
Target sequence (P14416 whole entry, looked up): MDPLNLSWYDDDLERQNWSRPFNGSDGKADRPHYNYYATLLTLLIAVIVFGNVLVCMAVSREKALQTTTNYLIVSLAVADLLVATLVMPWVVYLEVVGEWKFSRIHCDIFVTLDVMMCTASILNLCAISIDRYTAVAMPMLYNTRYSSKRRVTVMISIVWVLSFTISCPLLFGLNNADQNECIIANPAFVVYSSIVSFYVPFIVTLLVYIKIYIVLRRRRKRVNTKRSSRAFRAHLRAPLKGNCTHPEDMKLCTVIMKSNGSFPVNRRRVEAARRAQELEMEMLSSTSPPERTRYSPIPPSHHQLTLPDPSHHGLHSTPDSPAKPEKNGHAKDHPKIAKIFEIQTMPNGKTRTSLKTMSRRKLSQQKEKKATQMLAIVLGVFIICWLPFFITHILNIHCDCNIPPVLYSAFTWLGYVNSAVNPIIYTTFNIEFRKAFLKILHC
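PathHunter D2 cells, attached overnight at 37 deg C, received compound in DMSO plus dopamine at EC20 (50 nM final) for 90 min at 37 deg C. Beta-arrestin recruitment was read as luminescence after 1 h with detection reagent at ambient temperature.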
Six1-Eya2 inh = blocks human Six1 binding to Eya2 | activity change, % (no concentration beside the values) | 360,000 tested, 0.56% active | AID 651725 | Q15475+O00167 | AlphaScreen GST-Six1/His-Eya2 binding, biochemical; hits give low values; control for the full effect not named in the record; in the data active = activity change below about -65%; inconclusive = about -30% to -65%; inactive = above about -30%; also: % is scaled to controls: 0 for no effect and ±100 for the full control effect; compound concentration not given in the record
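Compounds are tested against tagged Six1 and Eya2 proteins bridged by glutathione donor and nickel acceptor beads; after a one-hour incubation at 37 °C without light, AlphaScreen emission is recorded.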
CtBP-E1A inh = blocks the CtBP interaction with E1A; AlphaScreen GST-E1A/His-CtBP binding, 1536-well; hits give low values; control for the full effect not named in the record; activity change, % (test concentration not listed); 340,000 tested, 0.49% active; in the data active means activity change below about -65%; inconclusive means about -30% to -65%; inactive means above about -30%; also: % is scaled to controls: 0 for no effect and ±100 for the full control effect; compound concentration not given in the record
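AlphaScreen with 125 nM GST-E1A and 125 nM His-CtBP (5X stocks) in Tris pH 8.0, 300 mM NaCl, BSA, Tween 20, TCEP. Compounds preincubated 2 h at 37 deg C, then glutathione donor/nickel acceptor beads added for 1 h at 37 deg C in dark.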
TRPML1 blocker = human mucolipin-1 channel inhibition; 390,000 tested, 0.02% active; Q9GZU1; TRPML1-inducible cells, Ca2+ dye fluorescence, FDSS; hits give low values; inhibition of EC80 agonist-evoked calcium signal; activity change, negative = inhibition, % (test concentration not listed); in the data active means activity change below about -50%; inconclusive means about -30% to -50%; inactive means above about -30%;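 also: stimulus is agonist 54-4 at its EC80 concentration; % is scaled to controls: 0 for no effect and ±100 for the full control effect; compound concentration not given in the record; the text of the record puts the active cut at -80%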
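TRPML1-DL cells, Tet-induced overnight (~16 h, 37 °C) at 1,500 cells/well, were loaded with Ca8 no-wash dye plus quencher for 45-90 min at room temperature. Compounds were pinned during FDSS kinetic reading; agonist 54-4 at EC80 (4 uM final) then added.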
* hit, by the source's call; u = inconclusive; x = not tested or not shown; & = joins results of further samples.

Start of the listing, in advance (three entries):
SMILES	TRPML1 agonist	TRPV1 potentiator	D2 potentiator	Six1-Eya2 inh	CtBP-E1A inh	TRPML1 blocker
CCC1CCCCN1CCCNC(=O)CNC(=O)c1nn(-c2ccc(OC)c(Cl)c2)c(=O)c2ccccc12 (centres undefined)	-0.2	7	-10	-6	2	7
Cc1cccc(OCCSc2cc(C)nc(N)n2)c1	-0.9	-4	7	-1	7	-8
Cn1c(=NC(=O)CN2C(=O)C3CC=CCC3C2=O)sc2ccccc21 (centres undefined)	1.5&-0.5	u	-10&-12	25&-2	1&5	-8&6

Main list, previewed entries included:
SMILES	TRPML1 agonist	TRPV1 potentiator	D2 potentiator	Six1-Eya2 inh	CtBP-E1A inh	TRPML1 blocker
CCC1CCCCN1CCCNC(=O)CNC(=O)c1nn(-c2ccc(OC)c(Cl)c2)c(=O)c2ccccc12 (centres undefined)	-0.2	7	-10	-6	2	7
Cc1cccc(OCCSc2cc(C)nc(N)n2)c1	-0.9	-4	7	-1	7	-8
Cn1c(=NC(=O)CN2C(=O)C3CC=CCC3C2=O)sc2ccccc21 (centres undefined)	1.5&-0.5	u	-10&-12	25&-2	1&5	-8&6
COc1ccc(C(=O)Nc2ccc3c(c2)OCO3)cc1OC	-0.4	-16	-15	-10	7	1
O=C(COC(=O)[C@@H]1CC(O)CN1S(=O)(=O)c1ccccc1[N+](=O)[O-])c1ccccc1 (some centres undefined)	0.4	6	7	16	2	-14
O=C1Nc2cc(C(=O)NCCCN3CCCC3)ccc2S/C1=C/c1ccccc1F	0.2	6	-16	-13	x	2
COc1cc(/C=C/C(=O)OCC(=O)NC(=O)NC(C)C)ccc1OCC#N	-0.8	-7	-7	-4	3	-2
CCOC(=O)C1=C[C@@H](CC)N(S(=O)(=O)c2ccc([N+](=O)[O-])cc2)[C@H]1c1ccccc1	-0.3	x	23	-30	-28	x
O=C1C2C3C=CC(C3)C2C(=O)N1c1n[nH]c(-c2ccccc2)n1 (centres undefined)	3.4	0	1	4	9	-22
C(=N\Nc1nc2ccccc2[nH]1)/c1ccc2ncccc2c1	0.3	u	-4	2	-6	11
CCN1C(=O)/C(=C2\C=Cc3ccccc3N2CC)SC1=S	1.1	0	-3	u	u	-16
CCNC(=O)C1(C)CCN(C(=O)c2cc(F)cc(F)c2)C1 (centres undefined)	-0.1	x	-6	0	1	-2
COc1ccc(-c2noc(CCC(=O)NC3CCCCCC3)n2)cc1	-0.9	-7	-22	1	0	9
COC(=O)c1ccc(CNC(=O)C23CC4CC(CC(C4)C2)C3)cc1	-0.2	2	-8	-2	1	3
COc1ccc(-c2nc3ccc(C)cn3c2NCc2ccc3c(c2)OCO3)cc1	0.0	5	-5	-3	x	7
Cc1ccc(S(=O)(=O)N2CCCCC2)cc1NC(=O)COC(=O)c1ccc(=O)[nH]c1	0.0	16	-3	0	0	1
Cc1cccc(NC(=O)c2nc[nH]c2C(=O)N[C@@H](CC(C)C)C(=O)OCc2ccccc2)c1	0.2	-10	-17	-12	-3	-6
CCOc1ccccc1-n1c(SCC(=O)NCc2ccco2)nnc1-c1ccncc1	-0.4	7	5	3	-3	16
CCc1cc(C(=O)OC)c(NC(=O)CCC(=O)O)s1	-1.3	-11	-5	1	11	13
O=C(COC(=O)CCSc1ccccc1)NCc1ccccc1Cl	2.8	-5	-5	-1	-5	21

Only TRPML1 agonist (4 entries from above):
Molecule | TRPML1 agonist
O=C1Nc2cc(C(=O)NCCCN3CCCC3)ccc2S/C1=C/c1ccccc1F | 0.2
COc1cc(/C=C/C(=O)OCC(=O)NC(=O)NC(C)C)ccc1OCC#N | -0.8
CCOC(=O)C1=C[C@@H](CC)N(S(=O)(=O)c2ccc([N+](=O)[O-])cc2)[C@H]1c1ccccc1 | -0.3
O=C1C2C3C=CC(C3)C2C(=O)N1c1n[nH]c(-c2ccccc2)n1 (centres undefined) | 3.4

(further entries)
SMILES	TRPML1 agonist	TRPV1 potentiator	D2 potentiator	Six1-Eya2 inh	CtBP-E1A inh	TRPML1 blocker
O=C(NC1CCS(=O)(=O)C1)c1ccccc1Cl (centres undefined)	-0.5	x	-2	1	10	-22
Cc1ccc(NC(=O)CCc2c(C)nn(-c3ccc(N4CCOCC4)nn3)c2C)c(C)c1	-0.7&0.4	2	-6	3	8	9&3
CSc1ccccc1NC(=O)CN(C)CC(=O)Nc1ccccc1N1CCOCC1	-0.4	-9	-5	1	2	27
CN(C)CCNCCCNc1c2ccccc2nc2cccc([N+](=O)[O-])c12	0.2	x	7	u	0	7
CC1Cc2cc(/C(O)=C3/C(=O)C(=O)N(CC4CCCO4)C3c3ccco3)ccc2O1 (centres undefined)	-0.5	-1	-2	2	-1	9
Cc1noc(C)c1C(=O)N1CCN(S(=O)(=O)c2ccc(F)cc2)CC1	-0.5	1	-1	1	6	0
COc1ccc(N(CC(=O)NCc2ccccc2C)S(=O)(=O)c2ccc(C)cc2)cc1OC	1.4	-11	2	-1	3	0
CCc1ccc(OCc2nnc(NC(=O)c3cccs3)s2)cc1	0.2	18	-5	12	2	-5
CN(C)c1ccc(C(=O)N/N=C/c2ccccn2)cc1	0.0	-15	-13	-23	-29	3
Cc1[nH]n(-c2ccccc2)c(=O)c1C=Nc1ccc2[nH]c(=O)[nH]c2c1	0.0	-9	11	6	-6	16
COCCNC(=O)c1ccc2c(c1)ncn2-c1ccc(F)c(F)c1	-0.1	5	-4	0	-7	-15
COc1ccc2c(C)cc3nnnn3c2c1	-0.5	-1	-11	-1	-5	-7
COc1ccc(Br)cc1/C=N/n1c(C)nc2ccccc2c1=O	2.4	-22	-13	0	-4	5
CC(C)(C)N(NC(=O)c1ccccc1)C(=O)c1ccc(C(=O)N(NC(=O)c2ccccc2)C(C)(C)C)cc1	6.2	2	-26	2	4	15
CC#CC[N+](C)(CC#CC)CC(=O)c1ccccc1	1.0	6	-6	-3	x	-11
COc1ccc(OC)c(NC(=O)CSc2nnc(Cn3nnc4ccccc43)n2C)c1	-0.7	8	-11	10	-2	-3
CCOc1ccc(NC(=O)CSc2nc(C)cc(C)n2)cc1	0.8	21	-5	2	7	13
O=C(NC[C@H]1CCCO1)c1cccc2c1C(=O)c1ccc(-c3ccc(F)cc3OCc3ccccc3)cc1S2(=O)=O	0.1	x	-2	-19	-26	31
CCOC(=O)c1c(-c2cccc3ccccc23)csc1NC(=O)C1C2CCC(O2)C1C(=O)O (centres undefined)	-0.5	7	-14	-5	4	19
CC(C)c1ccc(S(=O)(=O)N2CCN(C(=O)c3cc([N+](=O)[O-])ccc3N3CCOCC3)CC2)cc1	-0.4	14	-7	-12	-25	8
Cc1cccc(OCc2nn[nH]n2)c1C	0.2	7	-3	1	-25	3
COc1ccc(C(=O)Nc2ccc(N3CCOCC3)cc2)cc1S(=O)(=O)N1CCCC1	0.0	19	-1	3	5	-4
O=C(NNC(=S)NC(=O)c1cccs1)c1ccc(NC(=O)c2ccccc2)cc1	0.5	-2	17	0	7	-7
Clc1cccc(CNc2ccn3nc(-c4ccccc4)cc3n2)c1	0.0	x	-2	-5	-2	x
O=C(Nc1ccc2ccccc2c1)NC1CCS(=O)(=O)C1 (centres undefined)	2.5	-4	0	3	4	-13
CCc1noc(C)c1C(=O)Nc1cccc(S(=O)(=O)N2CCCCCC2)c1	1.7	-10	9	1	-4	-3
Cc1ccc(NC(=O)C2CCN(S(=O)(=O)c3cccs3)CC2)c(O)c1	0.7	-7	14	-2	-6	2
Cc1c(C(=O)NC(C)C)c(-c2ccccc2)nn1-c1ccccc1	0.0	0	-5	9	2	26
CC(C)(C)c1csc(N/N=C/c2cccnc2)n1	0.5	-23	-8	-16	-10	21
O=C1CC(N2CCC(O)(c3ccc(Cl)cc3)CC2)C(=O)N1Cc1ccc(N2CCCC2=O)cc1 (centres undefined)	4.0	6	-2	-1	-3	29
CC[n+]1ccc(C[n+]2ccccc2)c2ccccc21	0.3	1	-5	3	2	-10
CC(C)c1ccc(/C=C/C(=O)CCC(=O)O)cc1	-0.2	-17	-1	-1	-2	-7
CCN(CC)c1ccc(/C=C(/C#N)c2nc3ccc(C)cc3[nH]2)c(OC(C)C)c1	-0.5	-7	-17	-23	0	-16
CCCCc1cc(-c2n[nH]c(=S)o2)c2ccccc2n1	-1.4	-11	-4	7	-5	26
O=C1OC(c2ccccc2)c2ccc3ccccc3c21 (centres undefined)	4.4	u	-1	11	-4	49
CCOC(=O)C1CCN(C(=O)COC(=O)COc2ccccc2OC)CC1	-0.1	1	-10	3	4	-7
Cc1nn(-c2ccccc2)c(C)c1/C=N/NC(=O)c1cc(-c2ccc(Br)s2)[nH]n1	2.2	-20	6	0	6	-9
CCOc1nc2ccccc2nc1C	-0.4	9	9	6	4	-2
COc1cc2c(cc1OC)[C@@H](NC(=O)c1ccc(C(F)(F)F)cc1)[C@H](OCc1ccccc1)C2	-0.7	x	x	-1	2	1
CCCn1nc(C(=O)NNC(=O)CCCOc2ccc(C)cc2)c2ccccc2c1=O	1.2	4	-11	2	-6	16
COc1ccc(C(=O)N(Cc2ccco2)C(C(=O)NC2CCCC2)c2ccc(O)cc2)cc1OC (centres undefined)	2.0	3	-6	-10	11	-5
CCN(CC)CCNC(=O)NC1CCCCC1	-0.6	0	-12	-1	-1	-4
COC(=O)CSc1cc(C(=O)c2nccn2C)c2ccccc2n1	-0.3	3	7	0	-6	-2
Cc1c(N2C(=O)/C(=C\C3CC=CCC3)SC2=S)c(=O)n(-c2ccccc2)n1C (centres undefined)	-0.1	-2	-15	-2	0	6
CC#CCN1c2ccccc2[C@]23C[C@@H](C(=O)OC)N(C(=O)c4cc(C)oc4C)C2=NC(C(=O)OC)=C(C(=O)OC)[C@H]13	0.7	-23	-1	-19	-8	36
COc1ccc(-c2nnc3sc(C(C)N4C(=O)c5ccccc5C4=O)nn23)cc1 (centres undefined)	1.4	-4	-2	-5	-8	17
CCOC(=O)C1CCN(C(=O)c2ccc3c(c2)NC(=O)/C(=C\c2ccc(C)cc2)S3)CC1	1.0	-8	-17	-5	-7	-1
COc1cc2c(cc1OC)C1Cc3ccc(OC)c(OC)c3CN1CC2 (centres undefined)	0.1	2	-47	-6	-5	14
CCOC(=O)C1=C(N)N2C(=O)C(C)SC2=C(C(=O)OCC)C1c1cc(OC)c(OC)c(OC)c1 (centres undefined)	x	-12	-1	2	-1	x
Cc1nc2ccccc2n1CC(=O)N/N=C\c1ccccn1	1.3	-7	-3	-20	u	-6
Cc1cccc(N2CCN(C(=O)Cn3cccc3)CC2)c1C	0.2	-35	-9	-1	-1	-13
CCCC[C@@H]1C=C(C(=O)O)[C@H](c2ccc(C)cc2)N1S(=O)(=O)c1ccc(C)cc1	0.7	x	-8	2	-1	22
NS(=O)(=O)c1ccc(CNC(=O)CNC(=O)c2ccc(F)cc2)cc1	0.8	-3	-11	2	x	10

Full records, looked up by structure. Screens in order: TRPML1 agonist	TRPV1 potentiator	D2 potentiator	Six1-Eya2 inh	CtBP-E1A inh	TRPML1 blocker
`CCOC(=O)C1CCN(C(=O)c2ccc3c(c2)NC(=O)/C(=C\c2ccc(C)cc2)S3)CC1` in the list: 1.0	-8	-17	-5	-7	-1
`Cc1nc2ccccc2n1CC(=O)N/N=C\c1ccccn1` in the list: 1.3	-7	-3	-20	u	-6
